High-throughput results deposited in PubChem by several laboratories.
MT1-MMP act inh – blocks activation of human MT1-MMP; GFP/RFP ratio change, % at 20 µM; actives 0.061% (n = 360,000); HT1080 RFP-PRO-GFP cells, GFP/RFP ratio fluorescence, overnight; percent of plate control window, DMSO zero; P50281; AID 651647;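 active = GFP/RFP ratio change of at least 30% with cell ATP level not reduced by more than half and red fluorescence within 50% of control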; also: strong numbers were not always called active
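Compound: 20 µM single dose, 1% DMSO / System: HT1080 RFP-PRO-GFP cells / Controls: DMSO and RFP-L50D-GFP cell wells / Read-out basis: GFP/RFP fluorescence ratio / Schedule: overnight compound exposure at 37 °C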
Yeast UUG start – alters start codon recognition fidelity in yeast; S. cerevisiae UUG-firefly luciferase reporter, luminescence/redox ratio; activity score, % at 18.7 µM; actives 0.13% (n = 350,000); AID 602363;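 active = replicate mean at a twofold rise or more, about +100% in these data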;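 also: firefly luciferase made from a UUG start codon reports start codon fidelity; reporter light over untreated wells divided by growth signal over untreated wells; some hits fall short of that in this replicate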
CSC inhib – cancer stem cell inhibition; cancer stem cell-like cells viability, luminescence; inhibition, % at 7.5 µM; actives 1.1% (n = 300,000);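 active = mean at 75% or more and at least half the replicates too; tested in HMLE shEcad cells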;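 also: 0% = median of negative and 100% = median of positive control wells; the first replicate is given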
eIF4H inh – inhibitors of RNA binding by human eIF4H. actives 0.94% (n = 290,000). inhibition, % at 35 µM. Q15056. eIF4H fluorescence polarization binding assay;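 active = 50% or more with normal probe brightness, or confirmed in later tests; about a fifth of its hits are not listed in these tables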;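 also: calls also rest on retests at 20 µM and on dose response follow-up; 0% = protein and probe with vehicle and 100% = probe without protein; strong numbers were not always called active; many hits fall short of the cut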
PABP polyA inh – PABP-poly(A) binding inhibition; actives 1% (n = 290,000); inhibition, % at 35 µM; PABP-poly(A) RNA binding, fluorescence polarization; AID 2014; P11940;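 active = 50% or more with normal probe brightness, or confirmed in later tests; about a fifth of its hits are not listed in these tables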;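 also: calls also rest on retests at 20 µM and on dose response follow-up; controls were probe without protein and protein plus probe with vehicle; some compounds called inactive have numbers as strong as hits; many hits fall short of the cut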
Target sequence (P11940 whole entry, looked up): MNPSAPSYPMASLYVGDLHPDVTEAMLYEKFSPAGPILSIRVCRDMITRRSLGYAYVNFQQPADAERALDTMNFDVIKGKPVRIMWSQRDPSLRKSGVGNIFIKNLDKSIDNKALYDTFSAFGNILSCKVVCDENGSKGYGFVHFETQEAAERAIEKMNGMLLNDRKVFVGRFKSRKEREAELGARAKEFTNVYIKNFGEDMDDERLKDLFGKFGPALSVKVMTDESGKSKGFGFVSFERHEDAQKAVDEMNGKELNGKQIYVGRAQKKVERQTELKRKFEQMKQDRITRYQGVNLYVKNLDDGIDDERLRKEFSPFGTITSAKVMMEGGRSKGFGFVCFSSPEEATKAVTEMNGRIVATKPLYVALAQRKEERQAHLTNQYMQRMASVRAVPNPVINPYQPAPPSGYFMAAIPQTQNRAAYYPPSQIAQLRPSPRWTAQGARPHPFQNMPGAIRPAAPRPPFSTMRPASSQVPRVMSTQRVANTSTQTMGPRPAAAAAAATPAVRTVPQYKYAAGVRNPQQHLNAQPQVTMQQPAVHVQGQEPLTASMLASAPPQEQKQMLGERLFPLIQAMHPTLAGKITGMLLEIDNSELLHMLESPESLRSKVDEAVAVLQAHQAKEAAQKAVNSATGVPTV
HIV Env fusion – inhibitors of HIV Env-mediated cell fusion; HeLa-JRFL Env/CEM21 cell fusion, luciferase; inhibition, % at 12.3 µM; actives 1.1% (n = 360,000);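 active = mean replicate inhibition score of at least 50 and every replicate individually at or above 50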;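 also: 0% = plate neutral controls and 100% = maraviroc near 300 nM; one replicate is shown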
Rce1 inh – inhibitors of yeast Ras-converting enzyme | Q03530 | yeast membranes, quenched prenylated peptide cleavage fluorescence | calls only | actives 0.27% (n = 290,000);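 active = fall in fluorescence gain of 50% or more versus controls, with final raw signal at or below 3038400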;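 also: plate controls were neutral control wells for no effect and wells lacking membranes for full effect; tested at 10 µM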
eIF4H inh retest – second read-out of eIF4H inh, no call of its own (marks repeat the call); inhibition, %; compound at 20 µM; confirmation average;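 mean of two retest wells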
PABP polyA inh retest – second read-out of PABP polyA inh, no call of its own (marks repeat the call); inhibition, %; compound at 20 µM; confirmation repeats;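 mean of two retest wells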
MT1-MMP act inh RFP – second read-out of MT1-MMP act inh, no call of its own (marks repeat the call); RFP signal change, %; measured here: RFP expression control read;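 0 = vehicle wells; hits needed this value within 50% of zero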
Starred values were filed as active, the others as inactive; i = inactive; . = not tested or not shown. This is a subset; rates above refer to the full screens.

SMILES	MT1-MMP act inh	MT1-MMP act inh RFP	Yeast UUG start	CSC inhib	eIF4H inh	PABP polyA inh	HIV Env fusion	Rce1 inh	others
Cc1ccc(OCc2nnc(NC(=O)OCC(C)C)s2)cc1	7	9	-15	-1	-6	2	.	i
COc1ccc(C(=O)NC(=S)N2CCCC2)cc1	-1	1	-26	-3	9	1	-1	i
CCc1noc(C)c1C(=O)Nc1cccc(S(=O)(=O)N2CCCCCC2)c1	-1	-2	-26	-4	.	.	7	i
CC1CN(CC(O)COCc2ccc3c(c2)OCO3)CC(C)O1 (centres undefined)	4	2	-11	-17	12	-2	6	i
CCC(C)NC(=O)c1cc(Cl)c(NC(=O)C2=C(C)OCCS2)cc1OC (centres undefined)	0	-3	-15	7	0	12	1	i
CC1CC(C)CN(CCCNC(=O)C2CCN(c3ncnc4c3sc3cccc(F)c34)CC2)C1 (centres undefined)	.	.	.	-14	12	5	.	i
NC(=O)COc1cccc(/C=N/NC(=O)c2ccc(-n3cccc3)cc2)c1	8	2	-16	-7	1	12	6	i
O=C(OCc1ccccc1)c1ccc2c(c1)-c1ccccc1C2=O	5	6	-15	11	0	11	-122	i
CCc1nnc(SCC(=O)NC2CCCC2)nc1CC	1	1	-15	-8	1	1	-74	i
COc1ccc(C(=O)N/C(=C\c2cn(C)c3ccccc23)C(=O)NCCCN2CCOCC2)cc1	2	4	-3	3	-10	5	-33	i
COc1ccc(CN2CC(C(=O)NCCCN3CCCC(C)C3)CC2=O)cc1 (centres undefined)	0	5	-18	-27	-15	-7	-5	i
CCSc1nc(N)c(C#N)c(-c2ccccc2Cl)c1C#N	20	-6	-5	-4	-11	1	10	i
Cc1c(-c2ccccc2)oc2c(C(=O)OCC(=O)Nc3ccc(F)cc3)cccc2c1=O	-9	-2	0	-4	10	-12	12	i
O=C(COC(=O)c1ccc(O)cc1O)NCCN1C(=O)CSC1=O	0	0	-1	.	-11	-8	-26	i
COc1ccc(NC(=O)CCNS(=O)(=O)c2ccc3c(c2)c(=O)n(C)c(=O)n3C)cc1	7	1	3	4	-5	-7	7	i
Cc1ccccc1CNC(=O)CCC(=O)N1CCOc2ccccc21	-1	3	5	-13	-13	-8	-11	i
CCN(CC1CCCN(CCc2cccc(OC)c2)C1)C(=O)c1ccc(COC)o1 (centres undefined)	-1	4	1	17	-15	-2	24	i
O=C(NCCCN1CCOCC1)c1ccc([N+](=O)[O-])cc1[N+](=O)[O-]	0	4	.	-7	0	-14	-1	i
COC(=O)C[C@H](NC(=O)Cn1cnc(C(=O)Nc2ccc(C)c(C)c2)n1)C(=O)OC	3	4	-14	.	.	.	-67	.
CCOC(=O)C1=C(C)Nc2nc3ccccc3n2C1c1ccc(O)cc1 (centres undefined)	2	2	-3	-4	-10	-6	-27	i

Brought forward from above: 2 entries; new compounds follow.
SMILES	MT1-MMP act inh	MT1-MMP act inh RFP	Yeast UUG start	CSC inhib	eIF4H inh	PABP polyA inh	HIV Env fusion	Rce1 inh	others
COC(=O)C[C@H](NC(=O)Cn1cnc(C(=O)Nc2ccc(C)c(C)c2)n1)C(=O)OC	3	4	-14	.	.	.	-67	.
CCOC(=O)C1=C(C)Nc2nc3ccccc3n2C1c1ccc(O)cc1 (centres undefined)	2	2	-3	-4	-10	-6	-27	i
CC(=O)Nc1cccc(NC(=O)c2ccc(COc3ccccc3)cc2)c1	3	-1	-9	.	-4	3	-9	i
Nc1nc(SCC(=O)N2CCN(c3ccc(F)cc3)CC2)n[nH]1	2	4	-10	-2	.	.	0	.
COC(C[C@@H](O)C[C@@H](O)COCc1ccccc1)OC	-1	-2	-8	.	-3	5	-21	i
Cc1cc(C)nc(NS(=O)(=O)c2ccc(NC(=O)Cc3ccccc3F)cc2)n1	3	5	-8	-11	-4	1	-12	i
Cc1ccc(C)c(S(=O)(=O)N2CCN(C(=O)[C@@H]3CCCN3C(=O)c3cccs3)CC2)c1	-5	-2	-8	.	.	.	9	.
C=CCn1c(Cc2c[nH]c3ccccc23)nnc1SCC(=O)NCc1ccccc1	-3	-1	5	-11	0	8	.	i
CCC1(c2ccc(F)cc2)NC(=O)N(CC(=O)NCc2ccc(C)cc2)C1=O (centres undefined)	-3	-3	2	-3	-4	-4	2	i
CCNC(=O)Cn1cc(C#N)c2ccccc21	8	7	-5	8	-6	56	.	i	eIF4H inh retest=-14;PABP polyA inh retest=3
COc1ccc(S(=O)(=O)N2CCOCC2)cc1NC(=O)Cc1ccsc1	-3	1	-19	0	.	.	-17	.
CCN(CC)c1nc(-c2ccccc2)nc2ccccc12	3	-5	-6	18	7	52	12	i	eIF4H inh retest=-9;PABP polyA inh retest=18
N=C(N)SCCc1cnc[nH]1	5	4	-10	-5	.	.	-170	.
C/C(=N\NS(=O)(=O)c1ccc([N+](=O)[O-])cc1)c1cccs1	-5	0	.	-4	-2	2	-1	i
CCOc1ccc(C(=O)CCC(=O)N2CCN(c3ccc(O)cc3)CC2)cc1	8	-7	-23	81*	.	.	7	.
Cc1nc2c(C(=O)NCc3ccccc3)c[nH]n2c(=O)c1Cl	0	-5	.	-7	-4	6	6	i
COCC(=O)NC(c1ccccc1)c1ccccc1	-3	0	-11	-1	-1	-2	30	i
Nc1ccn([C@@H]2O[C@H](CNC(=O)[C@@H](Cc3cccnc3)NC=O)[C@@H](O)[C@H]2O)c(=O)n1	-1	2	-13	.	.	.	-6	.
C=CCN=C1NN=C(c2ccc3c(c2)OCCO3)CS1	4	4	-65	10	-4	-6	32	i
O=C1NC(=O)/C(=C/c2ccccc2Oc2ccc(Cl)cc2)S1	-4	-7	-12	8	-5	7	.	i
FC(F)(F)c1nnc2c(Sc3ccc(Cl)cc3)nc3ccccc3n12	2	-2	.	49	3	2	-66	i
O=C(N/N=C/c1cccc(OCc2ccccc2)c1)c1ccc(Br)cc1	-3	-2	.	14	-1	1	.	i
Cc1cccc(C(=O)NCC(=O)NC2CCN(Cc3ccccc3)CC2)c1	0	4	-19	-3	12	-1	10	i
O=S(=O)(c1ccc(Cl)cc1)N1CCc2ccccc21	-5	-1	-8	-1	-2	-1	-5	.
CCCCNC(=O)C1(C)CCCCN1C(=O)c1ccc2sccc2c1 (centres undefined)	-3	-1	-5	.	.	.	-5	.
CC(=O)c1c(C)[nH]c(C(=O)N2c3ccccc3CC2C)c1C (centres undefined)	3	-1	-2	-15	-2	-6	19	i
CCN(CC)S(=O)(=O)c1cccc(NC(=O)CCNC(=O)c2ccc([N+](=O)[O-])cc2)c1	-2	-2	12	-11	2	9	35	i
COCc1c(C(=O)NCCc2ccc(OC(F)F)cc2)oc2ccccc12	1	-4	-11	4	.	.	.	.
CCOc1ccc(NS(=O)(=O)c2ccc3[nH]cc(C(=O)NCC4CCCO4)c(=O)c3c2)cc1 (centres undefined)	2	2	7	20	-4	8	.	i
CN1CCN(c2ccncc2S(=O)(=O)N2CCCCC2)CC1	-12	3	-17	-6	1	-8	0	.
Cc1ccc(S(=O)(=O)Nc2cc3c4c(c2)C(C)C(=O)N4CCC3)cc1 (centres undefined)	5	-4	-6	1	.	.	11	i
NS(=O)(=O)c1ccc(NC(=O)COC(=O)Cn2cnc3ccccc3c2=O)cc1	-2	2	-7	17	.	.	-10	.
O=C(c1ccc(N2CCCC2=O)cc1)N1CCN(c2ccc(Cl)cc2)CC1	-5	-16	-10	-8	5	6	-3	i
O=C(O)CCn1c(SCCc2ccccc2)nc2ccccc21	1	3	.	-2	.	.	3	i
CN(C)/C=N/c1cc(=O)n(Cc2ccccc2)c(=O)n1C	3	0	-17	-9	2	-13	1	i
CC1C/C(=C/c2ccccn2)C(=O)/C(=C/c2ccccn2)C1 (centres undefined)	-24	-33	.	5	50	-13	.	i
O=C(CN1CCC(n2nnc3cc(C(F)(F)F)ccc32)CC1)NCc1cccs1	9	-6	-19	0	5	1	43	i
CN(C)CCCOc1cccc(Cl)c1	3	4	-2	-9	4	2	.	i
Cc1ccc(NC(=O)c2c(C(=O)Nc3ccccc3)sc3nc(C)cc(=O)n23)cc1	-1	2	.	-13	-4	-10	13	i
Cn1c(=O)n(C)c2cc(NC(=O)c3ccc(F)cc3)c(Br)cc21	2	3	3	2	6	10	3	i
CC(=O)Nc1cccc(NC(=O)CSc2nccn2Cc2ccccc2)c1	3	-19	-3	-6	0	-6	.	i
COc1ccc(NC(=O)c2sccc2OS(=O)(=O)N(C)C)cc1	3	5	.	-6	0	-1	-11	i

Structural class: those above containing fluorine.
SMILES	MT1-MMP act inh	MT1-MMP act inh RFP	Yeast UUG start	CSC inhib	eIF4H inh	PABP polyA inh	HIV Env fusion	Rce1 inh	others
CC1CC(C)CN(CCCNC(=O)C2CCN(c3ncnc4c3sc3cccc(F)c34)CC2)C1 (centres undefined)	.	.	.	-14	12	5	.	i
Cc1c(-c2ccccc2)oc2c(C(=O)OCC(=O)Nc3ccc(F)cc3)cccc2c1=O	-9	-2	0	-4	10	-12	12	i
Nc1nc(SCC(=O)N2CCN(c3ccc(F)cc3)CC2)n[nH]1	2	4	-10	-2	.	.	0	.
Cc1cc(C)nc(NS(=O)(=O)c2ccc(NC(=O)Cc3ccccc3F)cc2)n1	3	5	-8	-11	-4	1	-12	i
CCC1(c2ccc(F)cc2)NC(=O)N(CC(=O)NCc2ccc(C)cc2)C1=O (centres undefined)	-3	-3	2	-3	-4	-4	2	i
FC(F)(F)c1nnc2c(Sc3ccc(Cl)cc3)nc3ccccc3n12	2	-2	.	49	3	2	-66	i
COCc1c(C(=O)NCCc2ccc(OC(F)F)cc2)oc2ccccc12	1	-4	-11	4	.	.	.	.
O=C(CN1CCC(n2nnc3cc(C(F)(F)F)ccc32)CC1)NCc1cccs1	9	-6	-19	0	5	1	43	i
Cn1c(=O)n(C)c2cc(NC(=O)c3ccc(F)cc3)c(Br)cc21	2	3	3	2	6	10	3	i
